VDR inhibitor: blocks the human vitamin D receptor; hit rate 0.93% among 400,000; VDR-SRC2-3 peptide fluorescence polarization, 2 h; AID 504847; P11473; Potency, µM, for the others: max response, negative = inhibition, most hits filed as inhibitors; active means well fitted inhibition curve with a large enough effect; inconclusive means small, poorly fitted or top-dose-only effect, or another doubt; inactive means no such curve, though single readings can be large or run the other way; further: series mostly up to about 120 µM
Target sequence (P11473 whole entry, looked up): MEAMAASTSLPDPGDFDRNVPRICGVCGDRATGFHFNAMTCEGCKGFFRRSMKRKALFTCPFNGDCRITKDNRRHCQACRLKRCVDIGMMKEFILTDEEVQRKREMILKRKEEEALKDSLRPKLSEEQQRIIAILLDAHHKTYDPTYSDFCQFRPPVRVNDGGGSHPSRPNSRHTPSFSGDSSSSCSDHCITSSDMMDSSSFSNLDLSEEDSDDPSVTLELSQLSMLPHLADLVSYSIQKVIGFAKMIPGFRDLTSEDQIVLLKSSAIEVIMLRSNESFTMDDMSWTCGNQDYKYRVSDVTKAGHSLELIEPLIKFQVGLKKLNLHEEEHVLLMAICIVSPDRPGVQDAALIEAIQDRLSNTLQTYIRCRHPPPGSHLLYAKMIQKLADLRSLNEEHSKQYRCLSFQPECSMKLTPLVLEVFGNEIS
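The screen uses fluorescence polarization to detect compounds that interfere with recruitment of the SRC2-3 coactivator peptide to VDR; plates are read after 2 h at room temperature.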
Numbers without * were called inactive; ? = inconclusive; [ ] = dose if it differs, or a comment. On the % scale 0 is the no-effect control and ±100 the full control effect; potency means the concentration at half of the fitted maximal effect. A portion of the library; rates above refer to the full screens.

VDR inhibitor | Compound
-10.9% | O=C(NNS(=O)(=O)c1ccc(Br)cc1)c1csnn1
6.6% | CCCN1CCN(CCCNC(=O)c2cc3c(=O)oc4ccc(C)cc4c3s2)CC1
10.0% | CCN1CCN(c2cc(C)c3cc(NC(=O)c4ccc(C)c(C)c4)ccc3n2)CC1
-9.3% | COc1cccc(C(=O)Nc2nnc(-c3ccc(F)cc3)o2)c1
-8.2% | CCOc1ccc(NC(=S)NN2CCN(C)CC2)cc1
7.4% | O=C(COc1ccc(Cl)cc1)OCC(=O)N1CCCC1
-9.4% | CC1CCCC(NC(=O)c2ccncc2)C1C (configuration not stated)
-15.7% | Cc1ccc(C(=O)N2CCn3c(C)ccc3C2C)cc1 (configuration not stated)
-11.6% | CCO[C@@H]1OC(C(=O)N2CCN(C)CC2)=C[C@H](C(C)(C)C)[C@H]1CCCO
2.7% | O=[N+]([O-])c1cc(S(=O)(=O)N2CCOCC2)ccc1OCc1cccc(Cl)c1

For convenience, part of the list above.
VDR inhibitor | Compound
-9.4% | CC1CCCC(NC(=O)c2ccncc2)C1C (configuration not stated)
-15.7% | Cc1ccc(C(=O)N2CCn3c(C)ccc3C2C)cc1 (configuration not stated)
-11.6% | CCO[C@@H]1OC(C(=O)N2CCN(C)CC2)=C[C@H](C(C)(C)C)[C@H]1CCCO
2.7% | O=[N+]([O-])c1cc(S(=O)(=O)N2CCOCC2)ccc1OCc1cccc(Cl)c1

Other records
VDR inhibitor | Compound
-1.5% | O=C(NNS(=O)(=O)c1ccccc1[N+](=O)[O-])c1cccc([N+](=O)[O-])c1
14.8% | COc1ccc(C(=O)Oc2c(CN3CCOCC3)cc(Cl)c3cccnc23)cc1
-1.1% | CC(=O)c1ccc(Cc2ccccc2)cc1
0.8% | CC1(C)NC(=O)N(CC(O)CN(c2ccccc2)S(=O)(=O)c2ccccc2[N+](=O)[O-])C1=O (configuration not stated)
-2.1% | CCCCNc1c(-c2ccc(-c3ccc(OC)cc3)c(OC)c2)nc2ccccn12
-2.2% | O=C(Nc1ccc(F)c(Cl)c1)c1ccc2c(Cl)c3c(nc2c1)CCCC3
18.3% | COc1ccc(C(=O)Nc2c(N)nc(SCC(=O)Nc3ccc(NC(C)=O)cc3)[nH]c2=O)cc1
-12.6% | CCc1nc(N2CCN(C(=O)c3ccco3)CC2)c2c3c(sc2n1)CCCC3
5.7% | Cc1ccc(O)c(-c2cc(C(F)(F)C(F)F)[nH]n2)c1
-17.2% | O=C(Cc1ccccc1[N+](=O)[O-])Nc1cccc(S(=O)(=O)NC2=NCCCCC2)c1
-14.4% | Cc1ccc(S(=O)(=O)N2CCOCC2)cc1C(=O)N1CCN(S(=O)(=O)c2cccs2)CC1
0.9% | COc1ccc(/C=C2/SC(=S)N(CCC(=O)N3CCN(C)CC3)C2=O)cc1
11.2% | COc1ccc(S(=O)(=O)N(C)CC(=O)Nc2ccc3c(c2)OCCO3)cc1OC
3.1% | Cc1cccc2nc(C(F)(F)F)nc(=O)n12
-4.6% | O=C(OCC(=O)N1CCOCC1)c1ccccc1OCc1ccccc1Cl
-10.4% | COC(=O)C1(Cc2ccccc2)NC(c2ccc(F)cc2)C2C(=O)N(C)C(=O)C21 (configuration not stated)
14.3% | CCCCN(CCCC)S(=O)(=O)c1ccc(C(=O)Nc2nnc(CSC)o2)cc1
-7.1% | Cc1cc(C)n(C(=O)CNC(=O)c2cccc(F)c2)n1
-14.0% | Cc1ccc(-n2ncc3c(=O)[nH]c(SC(C)C)nc32)cc1
14.1% | COc1ccc(CC(=O)NNC(=O)c2c(-c3ccccc3Cl)noc2C)cc1OC
14.9% | C[C@@H]1CN(S(=O)C(C)(C)C)[C@@H](CCO)/C1=C\CCO (some centres not stated)
5.2% | COc1ccc2nc(NC(=O)CSc3nc4cccnc4n3C)sc2c1
-8.2% | CCOC(=O)NC(C(F)(F)F)(C(F)(F)F)P(=O)(c1ccccc1)c1ccccc1
? | COc1ccc(-c2nc3cnc(N4CCOCC4)nc3n(-c3ccc(OC)cc3)c2=O)cc1
-13.3% | COc1ccc(-c2c(C)nn3c(-c4ccccc4)cc(C)nc23)cc1OC
-2.1% | CC(C)C[C@H]1CN=C(Nc2ccccc2)N1CC1CCCC1
-7.5% | CN1CCc2c(sc3c2c(=O)n(-c2ccc(Cl)cc2)c2nncn32)C1
-14.7% | COc1ccc(OC)c(NC(=O)COc2coc(CN3CCCc4ccccc43)cc2=O)c1
-19.9% | CCCCCCC(=O)Nc1nc(C)c(-c2csc(Nc3cc(Cl)ccc3C)n2)s1
-4.0% | CCOC(=O)C1(Cc2ccc(OC)cc2)CCN(C(=O)c2cc3ccccc3[nH]2)CC1
-6.4% | CCCCOc1ccc(C(=O)NCC(=O)NC2CCC(C)CC2)cc1 (configuration not stated)
-18.9% | CN(CC(=O)Nc1c(Cl)cccc1Cl)C(=O)CC1Sc2ccccc2NC1=O (configuration not stated)
-6.5% | O=C(NCC1CCCO1)/C(=C\c1ccco1)NC(=O)c1ccc(Cl)cc1 (configuration not stated)
4.5% | O=C(NC1CCCCCCC1)c1cccs1
-4.5% | Cc1ccc2nc(SCc3nc(-c4ccccc4C)no3)[nH]c2c1
6.3% | CCCNC1(C(N)=O)CCN(Cc2ccccc2)CC1
-7.6% | O=C(CNC(=O)c1ccc(Cl)cc1)NNC(=O)c1ccc(Br)cc1
2.1% | Cn1c(SCC2CCCO2)nnc1-c1cccc([N+](=O)[O-])c1 (configuration not stated)
2.8% | O=C(O)CCC(=O)NN1C(=O)c2ccccc2NC1c1ccc(F)cc1 (configuration not stated)
-27.6% | CCCc1nc2ccccc2c(C(=O)OCC(=O)NCc2ccco2)c1CC

Two of the compounds above, as labelled records.
> CCCNC1(C(N)=O)CCN(Cc2ccccc2)CC1
  VDR inhibitor = 6.3%

> CCCCOc1ccc(C(=O)NCC(=O)NC2CCC(C)CC2)cc1 (configuration not stated)
  VDR inhibitor = -6.4%

Going on with the list.
VDR inhibitor | Compound
-1.5% | N#Cc1c2n(c(=S)n(-c3ccc(OC(F)F)cc3)c1=O)CCCCC2
-10.2% | Cc1ccc(C(=O)COC(=O)C(C)N2C(=O)C3C4C=CC(C4)C3C2=O)cc1 (configuration not stated)
5.8% | COc1cc(/C=C/c2nc3ccccc3s2)cc(OC)c1O
1.1% | Cc1noc(C)c1C(=O)N1CCCC(N2CCN(c3cccc(C(F)(F)F)c3)CC2)C1 (configuration not stated)
-9.3% | CCC(=O)c1ccc(OCC(=O)Nc2nn3cnnc3s2)cc1
-19.5% | CN(C)S(=O)(=O)c1cccc(NC(=O)COC(=O)COc2ccc(Br)cc2)c1
8.4% | CCOC(=O)N1CCC(NS(=O)(=O)c2cc3c(cc2Cl)NC(=O)CO3)CC1
14.7% | COc1ccc(CN(C)C(=O)C(CCSC)NS(=O)(=O)c2ccc3c(c2)OCCO3)c(OC)c1OC (configuration not stated)
9.6% | Fc1ccc(CNc2nc3c(-c4ccc(F)cc4)nnn3c3ccccc23)cc1
-12.5% | Cc1cc(NS(=O)(=O)c2c(C(=O)N3CCOCC3)c(C)n(C)c2C)ccc1Br
-13.1% | COc1ccc(/C=C2\SC(=O)N(CCNC(=O)CN3C(=O)NC4(CCCC4)C3=O)C2=O)cc1
-0.5% | Cc1c(NC(=O)Nc2ccc(Cl)c(Cl)c2)c(=O)n(-c2ccccc2)n1C
3.4% | CC(C)NC(=O)c1ccc2c(c1)N(CC(=O)NC1CCCCC1)C(=O)C(C)(C)O2
-9.7% | CCOc1ccc(S(=O)(=O)NCCSc2ccccc2)cc1
-4.8% | Cc1cccc(CN2C(=O)CC(c3ccc(Cl)cc3)c3c(C)nn(-c4nc(C)cc(C)n4)c32)c1 (configuration not stated)
? | CC(C)C[C@@H](CNCC(=O)[C@H](CC(C)C)NC(=O)c1[nH]cnc1C(=O)N[C@H](CN)CC(C)C)NC(=O)c1nc[nH]c1C(=O)N[C@@H](CC(=O)O)C(=O)O
-13.6% | COc1cc(C(=O)NCCC(C)C)ccc1OCc1ccc(Cl)cc1Cl
-13.7% | COC(=O)CS(=O)(=O)c1cc(Br)cc2c1N(C(C)=O)CC2
-15.3% | COc1ccc(C)c2sc(=NC(=O)c3ccccc3)n(C)c12
1.1% | CCc1ccc(C2CC(c3ccc(Cl)cc3)=NNC2=O)cc1 (configuration not stated)
-17.6% | CCOc1cc2[nH]c(=O)n(CCC(=O)NCc3ccc(OC)cc3)c(=O)c2cc1OCC
2.1% | C[C@H](CO)N1C[C@H](C)[C@@H](CN(C)C(=O)Nc2ccc(C(F)(F)F)cc2)Oc2ccc(NS(=O)(=O)c3cccs3)cc2C1=O
2.9% | CCN(CC)C(=O)C1CCCN(c2ccc([N+](=O)[O-])cc2)C1 (configuration not stated)
-9.6% | CCOc1ccccc1N1CC(C(=O)Nc2ccccc2CC)CC1=O (configuration not stated)
-21.6% | C[C@H]1CN([C@@H](C)CO)C(=O)c2cccc(NC(=O)Nc3ccc(F)cc3)c2O[C@@H]1CN(C)Cc1ccc(C(=O)O)cc1
15.8% | COCCN(C(=O)Cn1nnc2ccccc21)C(C(=O)NC1CCCC1)c1cccc(OC)c1OC (configuration not stated)
-7.6% | CN1C=CC=C/C1=C(\C#N)c1nc2ccccc2[nH]1
-16.0% | Cc1ccccc1-c1cncnc1NCc1ccccc1
8.1% | COC(=O)c1ccc(N2CCN(C)CC2)c(NC(=O)c2cccnc2)c1
6.2% | CC(OC(=O)CCN=C1NS(=O)(=O)c2ccccc21)C(=O)Nc1ccccc1F (configuration not stated)

Molecules from the list above that contain bromine (five):
VDR inhibitor | Compound
-10.9% | O=C(NNS(=O)(=O)c1ccc(Br)cc1)c1csnn1
-7.6% | O=C(CNC(=O)c1ccc(Cl)cc1)NNC(=O)c1ccc(Br)cc1
-19.5% | CN(C)S(=O)(=O)c1cccc(NC(=O)COC(=O)COc2ccc(Br)cc2)c1
-12.5% | Cc1cc(NS(=O)(=O)c2c(C(=O)N3CCOCC3)c(C)n(C)c2C)ccc1Br
-13.7% | COC(=O)CS(=O)(=O)c1cc(Br)cc2c1N(C(C)=O)CC2

(more compounds)
VDR inhibitor | Compound
-18.7% | Nc1nc(SCC(=O)Nc2ccc([N+](=O)[O-])cc2)[nH]c(=O)c1NC(=O)c1ccc(Br)cc1
14.1% | CCOCCCNC(=O)C(c1ccccc1)N(Cc1ccc2c(c1)OCO2)C(=O)c1ccccc1O (configuration not stated)
1.8% | COc1ccc(-n2nc(C(=O)Nc3ccc4c(c3)OCO4)c3c4ccccc4n(C)c3c2=O)cc1
3.4% | CN(C(=O)Nc1ccc(Cl)cc1Cl)C1CCCC1
0.0% | FC(F)(F)c1nc2ccccc2nc1N/N=C\c1ccccc1
-2.8% | CCN(Cc1ccccc1)Cc1c(C)[nH]c2c(C)c(C)ccc2c1=O
3.8% | COc1cc(C(=O)Nc2c(C(=O)O)[nH]c3ccccc23)cc(OC)c1OC
-6.6% | C/C(=N\NC(=O)Cn1c(-c2ccccn2)nc2ccccc21)c1ccccc1
21.7% | COc1ccc(C2NC(=O)NC(c3ccccc3)=C2c2nc3ccccc3s2)cc1 (configuration not stated)
3.6% | C/C(NC(=O)c1ccccc1)=C1/C(=O)CC2C1C2(C)C (configuration not stated)
-24.6% | COc1ccccc1N1CCN(C(=O)c2oc3ccc(Br)cc3c2C)CC1
-17.8% | O=C(NCC1CCCO1)c1ccc2c(c1)N(Cc1ccccc1)C(=O)CS2 (configuration not stated)
7.0% | CCCn1cnc2cc(NCc3ccc(OC)cc3OC)ccc21
3.9% | COc1ccc(-c2cc3nc(C)c(CCC(=O)N4CCN(c5ccccc5F)CC4)c(C)n3n2)c(OC)c1
5.5% | CC12CCC(C(=O)Nc3ccc4c(c3)OCCO4)(OC1=O)C2(C)C (configuration not stated)
-7.8% | Cc1ccc(S(=O)(=O)Nc2ncccn2)cc1
-13.7% | F[B-](F)(F)c1cnc2ccccc2c1
8.3% | O=C(N/N=C/c1cccc(Br)c1)c1ccc(Cn2cc(Br)cn2)o1
-2.5% | Cc1c(NC(=O)c2cc3c(=O)n4ccccc4nc3s2)c(=O)n(-c2ccccc2)n1C
25.2% | O=C1c2ccccc2NC(c2ccc(F)cc2)N1Cc1ccco1 (configuration not stated)
-6.2% | COc1ccc([N+](=O)[O-])cc1NC(=O)CCN1CCN(c2ccccc2OC)CC1
-14.9% | CC1(C(=O)NCc2ccc(F)cc2)Oc2ccccc2NC1=O (configuration not stated)
-13.8% | CCN(CC)C(=O)[C@H]1CC(CC(=O)NCc2ccc(OC)c(OC)c2)C(=O)N2CCc3c([nH]c4ccccc34)[C@]12C (some centres not stated)
-11.5% | CC(NC(=O)c1ccc(S(=O)(=O)N(C)C)cc1)c1ccc(-n2ccnc2)cc1 (configuration not stated)
1.3% | COc1cccc(NC(=O)CSc2nncn2N)c1
? | CC1CCN(C(=O)c2ccc(S(=O)(=O)Cc3cccc(F)c3)c([N+](=O)[O-])c2)CC1
7.2% | CC(C)CN1CC[C@@]2(CCCN(C(=O)c3cccc(F)c3)C2)C1
-0.5% | CCn1c(SC)nnc1-c1nn(-c2ccccc2)ccc1=O
2.3% | C=CCOC(=O)N[C@H](/C(C(=O)OC)=C(\C)NCc1ccccc1)c1cccc(C(F)(F)F)c1
-10.2% | CC(C)OC(=O)CC1C(=O)NCCN1C(=S)NC(=O)c1ccccc1Cl (configuration not stated)
-9.8% | Cn1cc(C=O)c(-c2ccc3c(c2)OCCCO3)n1
-17.5% | Cc1cc(NC(=O)CSc2nnc(-c3ccncc3)n2N)ccc1Br
16.7% | Cc1ccc(-n2ncc3c2CC(C)(C)CC3NC(=O)Cc2c(C)noc2C)cc1 (configuration not stated)
32.8%[activator] | O=[N+]([O-])c1cnc(Nc2ccccc2)nc1Nc1ccccc1
19.4% | CN1CCN(C(=O)c2cc3nc(-c4ccc(Cl)cc4)cc(C(F)(F)F)n3n2)CC1

Assay outcomes: PubChem, National Center for Advancing Translational Sciences (NCATS)
